Assay outcomes from PubChem BioAssay.
Mtb H37Rv: M. tuberculosis H37Rv growth inhibitors, H37Rv strain (AID 1626); M. tuberculosis H37Rv growth inhibition; higher % means a stronger effect; inhibition, % at 10 µM; hits with a dose series show IC50 in µM; actives 0.95% (n = 220,000);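 active means confirmed in a dose series; inconclusive means inhibition above 80% but not taken into the dose series; inactive means below 80% or under 30% at every dose of the series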;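 further: bacteria incubated seven days before Alamar blue readout; 0% = bacteria only wells and 100% = bacteria with antibiotic wells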
Mtb betalactam: beta-lactam sensitization of Mtb H37Rv; actives 0.27% (n = 330,000); inhibition, % at 25 µM; M. tuberculosis H37Rv growth with meropenem, percent inhibition; hits of this screen are not shown here;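 active means about 74% or more and at least 40 points above the plate without the antibiotic, then above 30% in a dose series; inconclusive means first-round hits that could not be retested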;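 further: growth measured after seven days incubation then overnight dye step; 0% = bacteria only wells and 100% = bacteria with antibiotic; twin plates without the antibiotic show which effects depend on it; some results filed as inactive read as strong as hits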
YopH inh: blocks Yersinia enterocolitica YopH tyrosine phosphatase; fluorescence Ex485/Em525; inhibition, %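 (about 10 µM by stock and volumes)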; actives 0.16% (n = 140,000);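 active means inhibition of 50% or more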;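 further: controls were vehicle for no effect and minimum signal wells for full effect; inactives centre near -20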
Arbovirus inh: arbovirus infection inhibition; inhibition, % at 10 µM; arbovirus infection cell-based antiviral screen; actives 0.37% (n = 200,000);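 active means inhibition from about 30%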;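 further: bluetongue infection of BSR cells; cell survival read as ATP light after 72 h; 0% = infected wells without compound and 100% = uninfected wells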
RecA splice inh: inhibitors of M. tuberculosis RecA intein splicing; cell-free RecA intein splicing, fluorescence; inhibition, %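 (about 9 µM by stock and volumes)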; actives 0.75% (n = 290,000); in the data active means inhibition above about 30%; inconclusive means no clear call, values can overlap the other calls;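 further: 0% = vehicle wells and 100% = reference inhibitor control wells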
Target sequence (P9WHJ3 whole entry, looked up, canonical isoform): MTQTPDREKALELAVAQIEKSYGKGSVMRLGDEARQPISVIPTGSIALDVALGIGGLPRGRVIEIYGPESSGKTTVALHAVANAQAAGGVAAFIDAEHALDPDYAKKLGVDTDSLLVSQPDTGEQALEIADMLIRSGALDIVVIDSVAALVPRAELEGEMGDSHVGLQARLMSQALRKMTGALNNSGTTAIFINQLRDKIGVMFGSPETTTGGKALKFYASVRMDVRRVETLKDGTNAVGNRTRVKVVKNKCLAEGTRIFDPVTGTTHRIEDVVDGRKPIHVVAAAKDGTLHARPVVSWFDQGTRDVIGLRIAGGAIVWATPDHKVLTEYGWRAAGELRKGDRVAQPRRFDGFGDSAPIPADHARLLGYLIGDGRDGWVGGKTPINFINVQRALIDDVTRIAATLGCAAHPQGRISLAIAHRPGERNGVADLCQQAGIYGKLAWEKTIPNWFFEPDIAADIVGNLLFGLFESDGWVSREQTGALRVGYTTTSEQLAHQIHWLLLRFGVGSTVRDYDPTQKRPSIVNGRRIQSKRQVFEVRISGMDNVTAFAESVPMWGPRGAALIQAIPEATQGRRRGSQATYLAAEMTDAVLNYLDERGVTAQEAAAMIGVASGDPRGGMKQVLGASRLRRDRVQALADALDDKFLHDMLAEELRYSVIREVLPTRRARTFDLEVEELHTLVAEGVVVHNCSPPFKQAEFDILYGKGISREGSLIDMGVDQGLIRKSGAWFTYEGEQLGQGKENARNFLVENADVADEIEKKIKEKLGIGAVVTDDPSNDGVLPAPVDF
Arbovirus inh repeat: also measured in Arbovirus inh; calls as there; inhibition, %; measured here: 10K subset replicate screen; many hits read low in the repeat;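 first of two repeat runs on a subset; 0% = infected and 100% = uninfected wells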
* = called active by the depositor; ? = inconclusive; nt = not tested or not shown. A portion of the library; rates above refer to the full screens.

SMILES | Mtb H37Rv | Mtb betalactam | YopH inh | Arbovirus inh | RecA splice inh | others
Cc1ccc(-c2c(C(=O)NCc3ccc(F)cc3)oc(=O)c3ccccc23)cc1 | 2% | 1 | -4 | 12 | 12
COc1ccc(C2=NN(CC(=O)NCc3ccco3)C(=O)CC2)cc1 | -1% | -1 | 1 | -4 | 2.2
Nn1cc(-c2ccccc2)nc1SCC(=O)N1CCN(S(=O)(=O)c2ccccc2)CC1 | -6% | -3 | 23 | -6 | 2.9
COC(=O)C1=C(C)Nc2ccc(C)cc2S1 | -2% | 3 | -5 | -11 | -2.5 | Arbovirus inh repeat=-15
Cc1ccc(S(=O)(=O)N(C)c2ccc(C(=O)N(CC(C)C)C3CCS(=O)(=O)C3)cc2)cc1 (stereo unspecified) | nt | -3 | nt | nt | 2.7
Cc1ccc2nc(CSc3nnc(Nc4ccccc4C)s3)cc(=O)n2c1 | 6% | -3 | -20 | -1 | 1.3
Cc1c(NC(=O)c2cccc(-c3cc4ccccc4oc3=O)c2)cccc1-c1nc2ncccc2o1 | 1% | -8 | 6 | -9 | -0.1
Cc1ccc(C)n1-c1ccc(NC(=O)c2ccccc2)cc1 | -2% | 1 | -26 | -8 | 0.1
CCOC(=O)c1c(/N=C/C2C(=O)CCCC2=O)sc2c1CCCC2 | 8% | -7 | nt | -5 | -1.9
CC(OC(=O)Cn1[nH]c(=O)c2ccccc2c1=O)C(=O)Nc1cccc(Cl)c1 (stereo unspecified) | nt | -2 | nt | nt | 1.4
O=C(Nc1ccc2c(c1)OCCO2)c1ccc2nccnc2c1 | -6% | 0 | -27 | nt | 7.6
Cc1nn(C)c(C)c1NC(=O)CSc1nc(C2CC2)nc2c1cnn2-c1ccccc1 | 2% | 2 | -10 | -5 | 0.1

Sorted by SMILES length (lowest first): some entries from above.
SMILES | Mtb H37Rv | Mtb betalactam | YopH inh | Arbovirus inh | RecA splice inh | others
Cc1ccc(C)n1-c1ccc(NC(=O)c2ccccc2)cc1 | -2% | 1 | -26 | -8 | 0.1
CCOC(=O)c1c(/N=C/C2C(=O)CCCC2=O)sc2c1CCCC2 | 8% | -7 | nt | -5 | -1.9
Cc1nn(C)c(C)c1NC(=O)CSc1nc(C2CC2)nc2c1cnn2-c1ccccc1 | 2% | 2 | -10 | -5 | 0.1
Nn1cc(-c2ccccc2)nc1SCC(=O)N1CCN(S(=O)(=O)c2ccccc2)CC1 | -6% | -3 | 23 | -6 | 2.9
Cc1c(NC(=O)c2cccc(-c3cc4ccccc4oc3=O)c2)cccc1-c1nc2ncccc2o1 | 1% | -8 | 6 | -9 | -0.1

The listing picks up, repeating the 3 entries before the break.
SMILES | Mtb H37Rv | Mtb betalactam | YopH inh | Arbovirus inh | RecA splice inh | others
CC(OC(=O)Cn1[nH]c(=O)c2ccccc2c1=O)C(=O)Nc1cccc(Cl)c1 (stereo unspecified) | nt | -2 | nt | nt | 1.4
O=C(Nc1ccc2c(c1)OCCO2)c1ccc2nccnc2c1 | -6% | 0 | -27 | nt | 7.6
Cc1nn(C)c(C)c1NC(=O)CSc1nc(C2CC2)nc2c1cnn2-c1ccccc1 | 2% | 2 | -10 | -5 | 0.1
Cc1nc2sc(C(c3ccco3)N3CCN(C(c4ccccc4)c4ccccc4)CC3)c(O)n2n1 (stereo unspecified) | 8% | -2 | -11 | 2 | 27 | Arbovirus inh repeat=-8
CCCn1c(N)c(C(=O)CSc2nnc(-c3ccco3)n2Cc2ccccc2)c(=O)[nH]c1=O | 3% | -3 | -2 | 7 | 2.0
CC(=O)N(C(C)=O)c1ncnc2c1c(-c1ccc(Cl)cc1)nn2C(C)(C)C | 10% | 1 | nt | -19 | 2.1
COc1cccc(N2CCN(C(=O)CC(C)(C)CC3=NS(=O)(=O)c4ccccc4N3)CC2)c1 | nt | 0 | nt | nt | -3.5
COc1ccc(N2CCN(C(=O)c3sc4ncn(CC(=O)N5CCCCC5)c(=O)c4c3C)CC2)cc1 | nt | -2 | nt | nt | 6.5
Cn1c(=O)[nH]c(=O)c2c1nc(CN1CCN(c3cccc(Cl)c3)CC1)n2CCCc1ccccc1 | 5% | 6 | -30 | -7 | 0.9
CC(C)(C)c1cc(C(=O)N/N=C/c2ccc(-c3ccccc3[N+](=O)[O-])o2)n[nH]1 | nt | ? | nt | nt | 9.1
CCn1cc(/C=C(\NC(=O)c2ccccc2F)C(=O)N2CCCC2)c2ccccc21 | nt | 4 | nt | nt | 1.4
O=C(O)Cc1sc(Nc2ccc(F)cc2)nc1-c1cccs1 | 0% | 3 | nt | 2 | -11
O=[N+]([O-])c1cccc(Cl)c1NCCNS(=O)(=O)c1ccc(Cl)cc1 | 16% | -3 | -21 | 19 | 4.0
Cn1c(Cc2ccccc2)nnc1SCC(=O)N1CCOCC1 | -8% | 1 | -3 | -2 | 4.4
COc1ccc(-c2nc(-c3cccc(C)c3)[nH]c(=O)c2C#N)cc1 | -10% | 22 | -33 | 14 | 0.6
CCOc1cc(C)c(Cl)cc1S(=O)(=O)NCC1CCCO1 (stereo unspecified) | -17% | 1 | -23 | 4 | 3.4
FC(F)Sc1nnc(-c2cccs2)n1-c1ccccc1 | -1% | 2 | -26 | -3 | 2.3
Cc1cc(NC(=O)CSc2nc3ccccc3c(=O)n2C(C)c2ccccc2)no1 (stereo unspecified) | 9% | -2 | -18 | -4 | 1.1
CCOc1ccccc1N1CC(C(=O)Nc2nccs2)CC1=O (stereo unspecified) | -6% | -22 | -34 | 10 | -0.6
Cc1ccc(C)c(-n2c(SCC(=O)NCC3CCCO3)nnc2-c2ccoc2C)c1 (stereo unspecified) | 1% | 1 | -33 | 2 | 1.9
O=C(Nc1cccnc1)c1cc(S(=O)(=O)N2CCCCC2)c(Cl)cc1Cl | nt | -8 | nt | nt | 0.6
COc1ccc(CN2C(=O)C(O)(CC(=O)c3ccc4c(c3)OCO4)c3ccccc32)cc1OC (stereo unspecified) | -10% | -4 | -47 | -6 | 4.8
Cc1cc(NS(=O)(=O)c2ccc(NC(=O)c3cc4ccccc4o3)cc2)no1 | -8% | nt | -20 | 18 | nt
COc1ccc(CC(=O)Nc2nccs2)cc1OC | -6% | 2 | -18 | 1 | 0.0
CCN(C(=O)Cc1c(C(=O)O)n(C)c2ccccc12)c1ccc(F)cc1 | 3% | 4 | nt | -5 | 1.9
Cc1nnc(NC(=O)CSc2ccc(-c3ccc(Cl)cc3)nn2)s1 | -2% | 3 | nt | 2 | -3.0
COc1ccc(N2CCn3c2nc2c3c(=O)n(CCc3ccccc3)c(=O)n2C)c(OC)c1 | 4% | nt | -31 | -2 | 2.8
COc1ccc(/C=C2/SC(=O)N(CCNC(=O)C3CCCN3C(=O)c3cccs3)C2=O)cc1 (stereo unspecified) | 3% | -5 | -15 | -1 | 0.2
CCN1CCN(S(=O)(=O)c2ccc(Cl)c(C(=O)N(CC)CC(=O)Nc3ccc(OC)cc3)c2)CC1 | nt | -12 | nt | nt | 3.5
Cn1c(SCc2cc(=O)[nH]c(C(C)(C)C)n2)nnc1C(F)(F)F | -3% | -2 | nt | nt | 1.5
C=CCSc1nnc(NC(=O)CSc2nc3ccccc3o2)s1 | nt | 48 | -27 | 36* | -0.4
O=C(Cn1ncc2c3ccccc3n(Cc3ccccc3F)c2c1=O)NC1CC1 | nt | 3 | nt | nt | 0.0
Cc1ccc(OCC(=O)N2CCN(C(=O)c3ccc([N+](=O)[O-])cc3)CC2)cc1 | -5% | -3 | nt | 2 | 2.5
O=C(COc1ccc(Br)cc1CNC1CCCCC1)NCCc1ccccc1 | 13% | 5 | nt | -16 | 2.3
CCC(C)N1C(=O)CN(C2CCCCCC2)C(=O)C1c1ccccc1F (stereo unspecified) | 3% | -12 | nt | -9 | 2.7
Cc1nnc(SCC(=O)NC2CCCCC2)[nH]c1=O | nt | 0 | nt | nt | -1.1
CCCCNC(=O)CS(=O)Cc1nc(-c2cccs2)oc1C (stereo unspecified) | 0% | 0 | nt | 1 | -0.4 | Arbovirus inh repeat=1
Cc1ccc(C(=O)C2=C(O)C(=O)N(Cc3cccnc3)C2c2cccc([N+](=O)[O-])c2)o1 (stereo unspecified) | nt | 7 | nt | nt | -0.7
Cc1ccc(Nc2c(-c3ccccc3O)nc3ncccn23)cc1 | 22% | -6 | nt | nt | 3.6

Looked up one by one from the entries so far, 4 records:
SMILES | Mtb H37Rv | Mtb betalactam | YopH inh | Arbovirus inh | RecA splice inh | others
Cc1ccc(OCC(=O)N2CCN(C(=O)c3ccc([N+](=O)[O-])cc3)CC2)cc1 | -5% | -3 | nt | 2 | 2.5
Cc1ccc(C(=O)C2=C(O)C(=O)N(Cc3cccnc3)C2c2cccc([N+](=O)[O-])c2)o1 (stereo unspecified) | nt | 7 | nt | nt | -0.7
COc1ccc(/C=C2/SC(=O)N(CCNC(=O)C3CCCN3C(=O)c3cccs3)C2=O)cc1 (stereo unspecified) | 3% | -5 | -15 | -1 | 0.2
O=C(COc1ccc(Br)cc1CNC1CCCCC1)NCCc1ccccc1 | 13% | 5 | nt | -16 | 2.3

Carrying on:
SMILES | Mtb H37Rv | Mtb betalactam | YopH inh | Arbovirus inh | RecA splice inh | others
Cn1ccnc1C(=O)c1cc(SCC(=O)NCc2ccccc2)nc2ccccc12 | 3% | 0 | nt | -9 | 0.4
COc1ccc(/C=N/N2C(=N)SCC2=O)cc1 | -2% | 22 | nt | nt | 0.3
CC(C)c1ccc(NC2CCCN(C(=O)CCN3Cc4ccccc4C3=O)C2)cc1 (stereo unspecified) | nt | 6 | nt | nt | -0.8
COc1cc(N)c(Cl)cc1C(=O)OCC(=O)c1ccc2c(c1)NC(=O)CO2 | nt | -5 | nt | nt | 1.2
O=C(CN(CC1CCCO1)C(=O)CCC(=O)Nc1nccs1)NCc1ccc2c(c1)OCO2 (stereo unspecified) | 0% | -6 | -30 | 2 | -1.7
Cc1onc(-c2ccccc2Cl)c1C(=O)N1CCN(C)CC1 | nt | 2 | nt | nt | -1.8
COc1ccc(OC)c(CNc2ccc([N+](=O)[O-])cc2C)c1 | 6% | 1 | nt | 4 | 6.4
CCOc1ccc(NC(=O)Nc2ccc(Br)cn2)cc1 | 1% | 2 | nt | -1 | nt
Cc1cc(=O)n(C)c2ccc(S(=O)(=O)N3CCOCC3)cc12 | nt | 4 | nt | nt | -0.2
COC(=O)c1c(NC(=O)CSc2nccn2C)sc(C)c1C | nt | -8 | nt | nt | 0.2
CCOC(=O)[C@@H]1[C@H]2COc3cc(OC)ccc3[C@@H]2N2C(=O)N(c3ccc(F)cc3)C(=O)[C@]12C | nt | -6 | nt | nt | 1.4
COc1ccc(OCC(=O)NNC(=O)c2cccnc2)cc1 | -6% | ? | -31 | 1 | -3.0
CCOc1ccc(NC(=S)N(CCc2c(C)[nH]c3ccccc23)Cc2cccnc2)cc1 | nt | 1 | -4 | 13 | 7.4
NS(=O)(=O)c1ccc(CCNC(=O)c2ccc(=O)[nH]c2)cc1 | nt | -4 | nt | nt | -2.0
Cc1cc2ccccc2n1CCNC(=O)COc1ccc2ccccc2c1 | 53µM* | -2 | -6 | -25 | -2.3
CCCCN(C(C)=O)c1c(N)n(CCC)c(=O)n(CC(=O)Nc2cc(Cl)cc(Cl)c2)c1=O | 4% | 17 | nt | 0 | 0.2
Cc1ccc(CNC(=O)CN(C)S(=O)(=O)c2ccc3c(c2)n(C)c(=O)c(=O)n3C)cc1 | nt | -3 | nt | nt | 0.0
COc1cc(C2C(C(C)=O)=C(O)C(=O)N2CCN(C)C)ccc1O (stereo unspecified) | -5% | -18 | -17 | 10 | -9.1
CCN(CC(=O)NCc1cccs1)S(=O)(=O)c1cccc(C(C)=O)c1 | -11% | 0 | -27 | -3 | 3.5
Cc1ccccc1C(=O)Nc1ccnn1C1CCN(C(=O)C2CCOC2)CC1 (stereo unspecified) | nt | -5 | nt | nt | -0.9
Cc1ccc(SCC2CNc3nc4ccccc4c(=O)n32)c(C)c1 (stereo unspecified) | 5% | -3 | -56 | 11 | 2.1
COc1ccc(-c2c(S(=O)(=O)c3ccccc3)cnn2-c2ccccc2)cc1 | 4% | -1 | -30 | -10 | 4.5
CCN(CCn1cccn1)C(=O)c1cc(COc2ccc(F)c(F)c2)on1 | nt | 1 | nt | nt | 2.3
CCCCN1C(=O)/C(=c2\sc3nc(=O)c(-c4ccccc4)nn3c2=O)c2ccccc21 | -7% | -6 | 11 | -8 | 2.1
CCN(CC)C(=O)CSc1nc2cc(OC)c(OC)cc2c(=O)n1Cc1ccc(Cl)cc1 | -4% | 7 | -50 | -24 | 6.2
